Bioassay records: PubChem, National Center for Advancing Translational Sciences (NCATS)
miR-21 FLuc – raises the signal of a miR-21 reporter. HeLa miR-21 FLuc reporter, luciferase, 48 h. Potency, µM (series often up to 38.3 µM), without a hit: top-dose reporter change, positive = more light. 340,000 tested, under 10 active. AID 2288; active = well fitted rising curve with a large enough effect; inconclusive = small, poorly fitted or top-dose-only effect; inactive = no such curve, though single readings can be large or run the other way;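 further: % of control where 0% means no effect; miR-21 action dims this reporter so a rising signal means less miR-21 action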
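HeLa cells endogenously expressing miR-21, stably carrying CMV-driven firefly luciferase with a downstream miR-21 binding site, 2000 cells/well. Titrations up to approximately 40 uM, 48 hours; luciferase luminescence read.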
Rango dissoc inh – prevents RanGTP from dissociating the Rango-importin beta complex; O95149+P62826; Biochemical FRET Rango-importin beta, RanGTP-induced dissociation; Potency, µM (series often up to 46.1 µM), for inactives: at the highest dose activity change, negative = inhibition; actives 0.071% (n = 340,000); AID 540253; active means falling FRET ratio curve, often poorly fitted, with flat reads before Ran was added; inconclusive means other falling curves, or compound fluorescence or quenching; inactive means flat or rising ratio curve;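 further: potency means the concentration at half of the fitted maximal effect; % of control where 0% means no effect; nearly all actives have a fitted effect of over 45% in size; -100% = wells without RanGTP and RCC1; the record marks most hits as doubtful in a second field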
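Quantitative HTS using a FRET biosensor: 0.1 uM Rango, 0.25 uM importin beta, 0.6 uM Ran, 2 mM GTP, 0.2 uM RCC1 final, PBS with DTT, Tween-20 and BSA. Post-read taken 45 min after Ran addition.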
GLA inh pH 4.5 – blocks human alpha-galactosidase A at pH 4.5; 230,000 tested, under 10 active; purified enzyme, 4-MU-alpha-Gal fluorescence, pH 4.5; activity change, negative = inhibition, % at 105 µM; inconclusive = small, poorly fitted or top-dose-only inhibition, or a rising curve; inactive = flat fitted curve, though single readings scatter; no compound was filed as active;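 further: 0% = full activity with enzyme and -100% = basal without enzyme; dose as in the result columns while the protocol names 77 µM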
Rango complex inh – Rango-importin beta binding inhibition; Q14974; actives 0.031% (n = 340,000); Potency, µM (series often up to 92.2 µM), inactives show top-dose inhibition of complex formation; AID 540263; Rango CFP/YFP FRET sensor + importin beta, 45 min; active = rising FRET ratio curve, often small or poorly fitted; inconclusive = mostly compound fluorescence or quenching in the first reads; inactive = flat curves in all reads;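 further: potency means the concentration at half of the fitted maximal effect; 0% = DMSO wells and 100% = buffer wells lacking importin beta; nearly all actives have a fitted effect of over 15% in size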
Target sequence (Q14974 whole entry, looked up): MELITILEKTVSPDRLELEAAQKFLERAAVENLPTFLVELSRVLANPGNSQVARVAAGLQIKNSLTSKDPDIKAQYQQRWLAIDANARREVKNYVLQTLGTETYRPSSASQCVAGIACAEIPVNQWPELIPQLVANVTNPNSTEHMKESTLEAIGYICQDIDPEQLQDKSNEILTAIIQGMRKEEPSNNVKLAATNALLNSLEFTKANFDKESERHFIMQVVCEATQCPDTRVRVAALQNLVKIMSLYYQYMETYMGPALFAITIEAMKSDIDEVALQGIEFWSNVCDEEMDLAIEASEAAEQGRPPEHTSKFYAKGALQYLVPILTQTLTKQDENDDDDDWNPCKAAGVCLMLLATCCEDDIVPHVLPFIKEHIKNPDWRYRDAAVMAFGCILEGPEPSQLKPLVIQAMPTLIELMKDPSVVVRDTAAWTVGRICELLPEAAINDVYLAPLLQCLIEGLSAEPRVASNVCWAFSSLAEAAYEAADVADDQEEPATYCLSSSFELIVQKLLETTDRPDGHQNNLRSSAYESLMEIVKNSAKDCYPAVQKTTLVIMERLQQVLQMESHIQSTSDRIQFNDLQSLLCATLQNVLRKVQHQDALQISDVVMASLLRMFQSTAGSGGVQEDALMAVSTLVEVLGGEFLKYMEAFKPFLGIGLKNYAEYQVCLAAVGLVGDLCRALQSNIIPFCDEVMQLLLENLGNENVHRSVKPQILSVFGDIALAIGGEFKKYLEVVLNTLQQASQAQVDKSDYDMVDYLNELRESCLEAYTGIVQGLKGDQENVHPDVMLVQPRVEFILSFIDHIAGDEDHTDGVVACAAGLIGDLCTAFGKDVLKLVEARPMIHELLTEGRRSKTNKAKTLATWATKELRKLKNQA
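FRET biosensor (snurportin 1 IBB flanked by EYFP and cerulean), 50 nM, with compound 5 min, then 0.125 microM importin beta in PBS, 1 mM DTT, 0.02% Tween-20, 0.1% BSA. CFP/YFP ratio read after 45 min at room temperature; pre-read flags interference.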
The depositor's hits bear a star; ? = inconclusive; · = no result given; & = joins results of further samples. Some of the compounds tested; count on the stated rates, not on these rows.

mol,miR-21 FLuc,Rango dissoc inh,GLA inh pH 4.5,Rango complex inh
Cc1cc(/C=C(\C#N)C(=O)O)c(C)n1CC1CCCO1 (configuration not stated),-7%,-3%,?,-1.5%
Cn1ncc(Cl)c1C(=O)Nc1cccnc1,0%,-6%,1,0.2%
CCCCN(C(=O)CSc1cc(C)c2ccccc2n1)c1c(N)n(Cc2ccccc2)c(=O)[nH]c1=O,-7%,-2%,-1,-3.0%
Cc1ccc(C(=O)Nc2ccc3cn[nH]c3c2)cc1S(=O)(=O)N1CCCCC1,-5%,-4%,0,2.4%
Cc1nc2cc(C(F)(F)F)ccc2n1C1CCN(C(=O)N2CCOCC2)CC1,-7%,3%,0,-1.3%
COc1ccc(C(C(=O)NC2CCCC2)N(C(=O)c2snc(C(N)=O)c2N)c2cc(C)ccc2OC)cc1OC (configuration not stated),3%,-2%,·,-1.9%
CCCc1nnc(SCC(=O)N2CCCCC2C)n1CCCOC (configuration not stated),-3%,10%,10,-4.0%
CCOC(=O)c1sc2nc(NC(=O)C3CCCCC3)sc2c1C,-9%,13%,2,-4.3%
Cc1cc(C)c2c(CC(=O)N3CCCC3)coc2c1,-13%,-11%,·,0.7%
Cc1ccc(NC(=O)c2ccc(=O)n(CC(=O)Nc3c(C)cc(C)cc3C)n2)cc1,-3%&-20%,12%,·,-3.2%
C/C(=N\OCC(=O)N/N=C/c1ccccc1O)c1cccs1,14%,-12%,0,5.1%
C=C(C)COc1ccc(-c2nc(N)ncc2-c2ccccc2OC)c(O)c1,0%,-10%,?,-3.5%
Cc1ccccc1NC(=O)c1ccc(NC(=O)C2CC(=O)OC23CCCCC3)cc1 (configuration not stated),4%,-9%,0,-10%
CC1(C)Cc2nc3sc4c(=O)n(CC(=O)NCc5ccccc5)cnc4c3cc2CO1,3%,0%,2,0.0%
CCNC(=O)NC(=O)C(C)Sc1nc2ccccc2n1CC(C)C (configuration not stated),10%,-3%,2,-3.5%
COc1cc(/C=C/C(=O)OCC(=O)NCc2ccco2)cc(OC)c1OC,-2%,1%,0,-2.3%
CC(=O)N1CCN(C(=O)CC2OC(=O)c3ccccc32)CC1 (configuration not stated),-5%,-10%,-1,-1.1%
CCOCCCNC(=S)NNC(=O)CCn1nc(C)c(Br)c1C,-6%,8%,7,-0.8%
Cc1cccc(NS(=O)(=O)c2ccccc2)n1,-1%,42%,6,-7.6%
CCOc1ccc(-c2ccc(SCC(=O)N3CCN(c4ccccc4)CC3)nn2)cc1,-17%,·,8,·
O=C(O)CC(C(=O)Nc1ccc(Cl)cc1Cl)C1CCCO1 (configuration not stated),0%,1%,-2,-0.2%
Cn1ncc2c(NNC(=O)C3CCCCC3)ncnc21,0%,32%,-5,?
CCC1CCCCN1C(=O)c1cc2cc(Br)ccc2oc1=O (configuration not stated),0%,-9%,2,0.4%
CC1CN(C(=O)c2cccc(COc3ccccc3Cl)c2)CC(C)O1 (configuration not stated),-20%,-9%,-2,3.1%
CC1CCN(CCCCOc2ccc([N+](=O)[O-])cc2)CC1,-7%,0%,6,-3.4%
CCOC(=O)C1CCCN(c2c(Nc3cccc(C)c3)c(=O)c2=O)C1 (configuration not stated),-4%,1%,0,-1.7%
O=[N+]([O-])c1nn(-c2ccc3c(c2)OCCO3)n(O)c1=NC1CCN(Cc2ccccc2)CC1,-19%,-11%,-10,2.3%
O=C(CSc1nccc(=O)[nH]1)Nc1ccc(N2CCOCC2)c(Cl)c1,-8%,26%,·,0.5%
CCOc1ccccc1NC(=O)C(C)SCc1ccccc1 (configuration not stated),2%,5%,·,2.0%
CC1=C(C(=O)OCC(C)C)C(c2cccc(F)c2)N2C(=O)C(C)SC2=N1 (configuration not stated),-2%,0%,5,-0.1%
Cc1ccc(-c2cc(C(=O)NC3CCCCC3)no2)cc1,-11%,10%,·,-3.0%
O=C(c1ccccc1)N1CCN(CC(O)Cn2ccc3ccccc32)CC1 (configuration not stated),0%,21%,4,6.5%
COc1cc(C)c(CN2CCN(S(=O)(=O)c3ccc(Cl)s3)CC2)cc1OC,·,22%,·,-2.8%
c1ccc(Sc2ncnc3c2oc2ccccc23)nc1,-31%,-10%,-2,-1.1%
CN1CCN(CC(=O)Nc2c(C(=O)C3CC3)oc3ccccc23)CC1,-25%,9%,3,0.9%
CCN(CC)CCCNC(=O)c1oc2ccc(S(=O)(=O)N3CC(C)CC(C)C3)cc2c1C (configuration not stated),-7%,1%,·,0.0%

No new results follow: 4 of the compounds above.
mol,miR-21 FLuc,Rango dissoc inh,GLA inh pH 4.5,Rango complex inh
COc1cc(C)c(CN2CCN(S(=O)(=O)c3ccc(Cl)s3)CC2)cc1OC,·,22%,·,-2.8%
c1ccc(Sc2ncnc3c2oc2ccccc23)nc1,-31%,-10%,-2,-1.1%
CN1CCN(CC(=O)Nc2c(C(=O)C3CC3)oc3ccccc23)CC1,-25%,9%,3,0.9%
CCN(CC)CCCNC(=O)c1oc2ccc(S(=O)(=O)N3CC(C)CC(C)C3)cc2c1C (configuration not stated),-7%,1%,·,0.0%

Further records follow.
mol,miR-21 FLuc,Rango dissoc inh,GLA inh pH 4.5,Rango complex inh
COc1ccc(C(=O)COC(=O)c2ccc(NC(=O)c3ccccc3)cc2)cc1,-5%,-14%,-2,5.4%
COC(=O)c1ccc(CSc2nc3scc(-c4cccs4)c3c(=O)[nH]2)o1,-2%,-9%,-1,-3.7%
Cc1ccc(S(=O)(=O)NCCC(=O)Nc2ccncc2)cc1C,·,14%,·,-0.8%
Cc1nnc(SCc2cc(=O)oc3ccc4ccccc4c23)n1Cc1ccccc1,-9%,-22%,-1,?
O=c1[nH]c(-c2ccccc2)cs1,-1%,-11%,-7,-2.0%
CCOCCCNCc1cn(-c2ccc(F)cc2F)nc1-c1ccccc1C,13%,-3%,1,-1.3%
Cc1nc(SCc2c(F)cccc2Cl)c2c(=O)n(C)c(=O)n(C)c2n1,0%,-14%,1,2.6%
CCOc1ccccc1N(CC(=O)N1CCC(C(N)=O)CC1)S(=O)(=O)c1ccc(SC)cc1,-4%,-13%,·,-0.5%
Cc1ccc(-c2cc(C(=O)N3CCCC(C(F)(F)F)C3)c3ccccc3n2)o1 (configuration not stated),·,2%,·,0.0%
COc1ccc(S(=O)(=O)N(CC(=O)O)c2ccc(C)cc2)cc1,0%,-13%,3,7.8%
O=C1CC(N2CCC(c3nc4ccccc4o3)CC2)C(=O)N1c1cc(Cl)cc(Cl)c1 (configuration not stated),-4%,-15%,-11,0.0%
O=c1c2c(nc3c(-c4ccc(Cl)cc4)c[nH]n13)CCC2,?,-1%,-13,-0.5%

4 entries from above, reformatted:
Cc1ccc(S(=O)(=O)NCCC(=O)Nc2ccncc2)cc1C
  miR-21 FLuc = ·; Rango dissoc inh = 14%; GLA inh pH 4.5 = ·; Rango complex inh = -0.8%

Cc1nnc(SCc2cc(=O)oc3ccc4ccccc4c23)n1Cc1ccccc1
  miR-21 FLuc = -9%; Rango dissoc inh = -22%; GLA inh pH 4.5 = -1; Rango complex inh = ?

O=c1[nH]c(-c2ccccc2)cs1
  miR-21 FLuc = -1%; Rango dissoc inh = -11%; GLA inh pH 4.5 = -7; Rango complex inh = -2.0%

CCOCCCNCc1cn(-c2ccc(F)cc2F)nc1-c1ccccc1C
  miR-21 FLuc = 13%; Rango dissoc inh = -3%; GLA inh pH 4.5 = 1; Rango complex inh = -1.3%

The list goes on.
mol,miR-21 FLuc,Rango dissoc inh,GLA inh pH 4.5,Rango complex inh
COc1ccc(NC(=O)C(=O)c2cn(CC(=O)N3CCCC3)c3ccccc23)cc1OC,16%,8%,·,2.7%
O=C(COC(=O)c1ccc(-c2cnc3ccccc3n2)cc1)c1ccccc1,-9%,5%,1,-0.1%
Nc1cnnc(N/N=C\c2ccccc2)c1Cl,·,2%,·,0.3%
COc1ccc(CC(=O)N/N=C(/C)c2ccco2)cc1,4%,-11%,3,4.5%
Cc1ccc(C(=O)Nc2nnn(C)n2)cc1,-16%,-6%,-7,0.1%
O=C(/C(=C/O)N=Nc1cccc(C(F)(F)F)c1)c1ccccc1,-8%,-7%,-12,0.3%
COc1ccccc1NS(=O)(=O)c1ccc(C(N)=O)cc1,0%,10%,-17,1.5%
Cc1ccc(S(=O)(=O)/N=C2\C=C(Nc3ccc(O)cc3)C(=O)c3ccccc32)cc1,·,5%,·,-0.5%
Clc1ccccc1-c1nnc2n1CCCCC2,4%,0%,4,5.4%
Cc1ccsc1C(=O)NC1CCCN(Cc2ccc(Cl)cc2)C1 (configuration not stated),8%,1%,·,1.0%
CCCN(CCC)S(=O)(=O)c1ccc(NC(=O)Cc2cccs2)cc1,2%,1%,-12,-3.1%
Cc1cc(C)c(NC(=O)CSc2nccn2C)c(C)c1,-4%,-1%,12,0.1%
CC(=O)Nc1ccccc1NC(=O)C/C(C)=N/NC(=O)c1ccc([N+](=O)[O-])c(Cl)c1,-15%,3%,-1,-0.9%
Nc1ccc(C(=O)O)cc1,·,-15%&1%&-3%,0,-0.9%&-1.7%&-0.3%
C#Cc1ccc(CN2CCN(Cc3ccsc3)C(CCO)C2)cc1 (configuration not stated),-5%,38%,-3,-3.6%
COC(=O)C1(C)NC(c2ccco2)C2C(=O)N(c3ccc(F)cc3)C(=O)C21 (configuration not stated),3%,21%,6,-0.5%
O=C(c1ccc(F)cc1)c1ccc(N2CCCC2)cc1,-44%,-6%,-13,-3.4%
CCc1ncc(C)nc1CC,-1%,5%,0,-0.2%
CCN(CC)/C(Sc1ccccc1)=C(\C(Cl)=C(Cl)Cl)[N+](=O)[O-],4%,25%,-18,2.9%
CCCCCCCCNC(=O)c1cnccn1,-37%,5%,11,-1.2%
COC(=O)N/N=C/c1ccc(OS(=O)(=O)c2ccc(C)cc2)c(OC)c1,-16%,2%,2,3.0%
CCn1c(C)nc2cc(N)ccc21,-42%,0%,-4,0.4%
COc1ccccc1N1CCN(S(=O)(=O)c2cccc3nsnc23)CC1,-2%,1%,-1,5.8%
Cc1cccc(C(=O)Oc2ccc3ccc(O)cc3c2)c1,-7%,-8%,·,-0.1%
O=C(CCn1cccn1)N1CCCC(N2CCN(c3cccc(Cl)c3)CC2)C1 (configuration not stated),-6%,-6%,·,-0.2%
O=C1C2CCCN2C(c2ccccc2F)N1c1ccc(Cl)cc1 (configuration not stated),2%,27%,8,?
COc1ccccc1C(=O)COC(=O)Cn1[nH]c(=O)c2ccccc2c1=O,·,17%,·,0.3%
CCOc1ccc(S(=O)(=O)N2CCCCC2)cc1NC(=O)Cc1cccs1,·,-18%,·,-0.2%
CCOC(=O)c1nn(-c2ccc(C)cc2)c(=O)cc1OCC(=O)Nc1cc(C)ccc1OC,·,-1%,·,-2.0%
Cc1noc(C)c1C(=O)Nc1cccnc1,-5%,-15%,-4,-4.1%
O=C1CC(c2ccccc2)CC(O)=C1C=NCc1ccncc1 (configuration not stated),-1%,-9%,-3,-0.1%
COc1ccc(S(=O)(=O)N2CCCC(C(=O)O)C2)cc1 (configuration not stated),-2%,-4%,8,?
C/C(CC(C)C)=N\NS(=O)(=O)c1ccc(C)c([N+](=O)[O-])c1,-1%,4%,1,-0.9%
COc1ccc(CN2C(=O)C3C4C=CC(C4)C3C2=O)cc1 (configuration not stated),-3%,1%,3,-2.7%
O=C(NCCO)/C(=C\c1cccc([N+](=O)[O-])c1)NC(=O)c1ccco1,1%,8%,4,-0.6%
COc1ccc(-n2nc3c(N4CCC(C(=O)NCCc5ccco5)CC4)nnc(C)c3c2C)cc1,-9%,5%,·,-3.2%
COc1cccc(/C=C/c2ccncc2)c1OC,-35%,0%,3,-0.8%
